Compound activity (PubChem)
Mtb MbtI inh: MbtI salicylate synthase inhibitors, primary screen, biochemical, fluorescence intensity | AID 493033, 2011 | purified MbtI enzyme, fluorescence intensity read-out | inhibition, %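 (about 17 µg/mL by stock and volumes)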 | P9WFX0 | actives 0.89% (n = 100,000);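 active = above 50% in both replicates, above 80% if mildly self-fluorescent; inactive = the rest, strongly fluorescent compounds included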;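 note: 0% = mean of negative and 100% = mean of positive controls; one replicate is shown; some compounds called inactive have numbers as strong as hits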
Polio RdRp inh: poliovirus RdRp elongation inhibitors, primary screen, biochemical, fluorescence polarization, total intensity; % elongation, % (compound at 16.7 µg/mL); actives 0.66% (n = 150,000); AID 588519, 2011; poliovirus polymerase elongation; stronger effect = lower value; Genome polyprotein (Poliovirus type 1 (strain Mahoney)), P03300; in the data active = % elongation below about 90%; note: some results filed as inactive read as strong as hits
Target sequence (P03300 1749-2209 limits assumed): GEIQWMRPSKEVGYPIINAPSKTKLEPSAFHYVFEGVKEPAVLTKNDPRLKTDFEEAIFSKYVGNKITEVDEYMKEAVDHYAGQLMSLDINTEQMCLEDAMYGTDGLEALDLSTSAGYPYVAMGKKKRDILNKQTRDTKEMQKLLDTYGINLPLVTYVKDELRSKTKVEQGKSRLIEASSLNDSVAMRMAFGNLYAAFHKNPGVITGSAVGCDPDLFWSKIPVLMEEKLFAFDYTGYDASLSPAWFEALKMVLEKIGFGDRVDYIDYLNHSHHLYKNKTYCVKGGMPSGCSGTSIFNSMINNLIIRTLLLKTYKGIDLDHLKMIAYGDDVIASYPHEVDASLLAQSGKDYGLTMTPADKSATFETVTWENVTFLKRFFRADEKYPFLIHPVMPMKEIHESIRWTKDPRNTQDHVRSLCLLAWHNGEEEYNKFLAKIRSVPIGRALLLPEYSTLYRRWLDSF
Mtb MenB inh: M. tuberculosis MenB inhibitors, primary screen, biochemical, absorbance; AID 540299, 2011; 1,4-dihydroxy-2-naphthoyl-CoA synthase (Mycobacterium tuberculosis (strain ATCC 25618 / …; MenB enzyme assay, absorbance read-out; some hits fall short of the stated cut; actives 0.43% (n = 100,000); inhibition, %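 (about 12 µg/mL by stock and volumes)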;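 active = mean of two replicates above 30%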;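 note: 0% = no compound and 100% = wells with inactive enzyme; the first replicate is given; strong numbers were not always called active; inactives centre near -10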
Target sequence (P9WNP5 whole entry, looked up): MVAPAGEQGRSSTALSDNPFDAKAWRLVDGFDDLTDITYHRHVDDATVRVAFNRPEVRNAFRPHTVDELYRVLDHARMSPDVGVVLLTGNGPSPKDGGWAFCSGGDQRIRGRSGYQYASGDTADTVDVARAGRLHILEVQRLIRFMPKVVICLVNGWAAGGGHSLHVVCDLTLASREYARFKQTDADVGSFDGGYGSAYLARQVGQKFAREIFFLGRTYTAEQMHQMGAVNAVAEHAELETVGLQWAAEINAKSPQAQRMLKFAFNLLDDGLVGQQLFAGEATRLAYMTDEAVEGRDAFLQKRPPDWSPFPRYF
Polio RdRp inh intensity: recorded beside Polio RdRp inh, whose call it bears; % elongation; measured here: total intensity read-out; formula for this scale not given here;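 total fluorescence in place of polarization; lower means less elongation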
Starred values were filed as active, the others as inactive; i = inactive; / = not tested or not shown; & = joins results of further samples. Rows are unselected (roughly 1.8% active in at least one column).

molecule,Mtb MbtI inh,Polio RdRp inh,Polio RdRp inh intensity,Mtb MenB inh
CO[C@@]12[C@@H]3NC3CN1C1=C(C(=O)C(N)=C(C)C1=O)[C@@H]2COC(N)=O (some centres not stated),-12,100,99,0
CCOC(=O)c1[nH]c(C)c(C(=O)OCC(=O)N2CCCCC2C)c1C (configuration not stated),-13,109,108,-6
CCOc1cc(C(=O)N(CC)Cc2ccncc2)cc(OCC)c1OCC,-17,101,105,-21
CCn1cc(C(=O)O)c(=O)c2cc(F)c(N3CCN(C(=S)NC)CC3)cc21,/,109,109,-14
COC(=O)C1C(=O)C2=C(CC1C)NC(C)=C(C(=O)OC1CCCC1)C2c1ccc(C)o1 (configuration not stated),-4,100,103,-12
Cn1c(SCC(=O)N2CCCC2=O)nc2ccccc21,17,102,98,9
O=C1NC(=O)C(CCc2ccncc2)(CCc2ccncc2)C(=O)N1Cc1ccccc1,/,103,106,6
CC(C)n1c(=O)[nH]c2cc(C(=O)Nc3ccccc3N3CCCC3)ccc21,1,102,100,-8
COc1cc(C2=NC(O)C(=O)Nc3ccc(Cl)cc32)ccc1O (configuration not stated),-8,106,103,-11
CCOC(=O)C1=C(CN2CCOCC2)NC(=O)NC1c1ccc(Cl)cc1 (configuration not stated),13,98,102,-8
COc1cc(-c2nnc(SCC(=O)N3CCCC3)o2)cc(OC)c1OC,29,99,100,8
c1coc(-c2nc3ccccc3n2CCC2CCCCC2)c1,101,103,106,-4
O=C(Cn1nnc(-c2ccccc2NC(=O)c2cnccn2)n1)Nc1ccc2c(c1)OCCO2,-11,103,100,-47
CCc1cc(C(=O)OC)c(NC(=S)Nc2cn(CC)nc2C(N)=O)s1,2,98,103,-10
O=c1oc2ccccc2n1CCCOc1ccc2ccccc2c1,/,104,106,-35
CCC(Sc1nc2ccc(N3CCOCC3)cc2c(=O)n1CCc1ccccc1)C(=O)NCc1ccco1 (configuration not stated),-25,100,102,-4
COc1ccc(CC2(C)OC(c3ccncc3)=NN2C(C)=O)cc1 (configuration not stated),i,98,101,-9
Cc1cc(NC(=O)CSc2nc3c(sc4ccccc43)c(=O)n2CCc2ccccc2)n[nH]1,0,105,109,-13
Cc1ccc2nc(C)cc(C)c2c1,27,102,95,-12
CNC(=O)COC(=O)c1ccc(-c2cccc(C(F)(F)F)c2)o1,102,108,114,-4
COC(=O)c1cc(S(=O)(=O)N2CCOCC2)oc1C,-12,103,108,1
CC(C)NC(=O)CSc1n[nH]c(-c2ccc(Br)cc2)n1,-18,100,107,-1
CC1C/C(=C\c2ccccn2)C(=O)/C(=C/c2ccccn2)C1 (configuration not stated),9,101,103,/
CN(CCOc1ccccc1)C(=O)C1CCN(S(=O)(=O)c2cccs2)CC1,2,98,97,-11

3 entries already listed, ordered by formula weight, ascending:
molecule,Mtb MbtI inh,Polio RdRp inh,Polio RdRp inh intensity,Mtb MenB inh
Cc1ccc2nc(C)cc(C)c2c1,27,102,95,-12
COc1ccc(CC2(C)OC(c3ccncc3)=NN2C(C)=O)cc1 (configuration not stated),i,98,101,-9
Cc1cc(NC(=O)CSc2nc3c(sc4ccccc43)c(=O)n2CCc2ccccc2)n[nH]1,0,105,109,-13

Additional compounds follow:
molecule,Mtb MbtI inh,Polio RdRp inh,Polio RdRp inh intensity,Mtb MenB inh
O=C(CCSc1nccn1Cc1ccccc1)NC1CCCCC1,/,103,106,0
CCOC(=O)c1cc2oc(C)cc2n1CC(=O)NC1CC1,5,102,102,22
O=C(CN1CCCCCC1=O)NCCc1ccc2c(c1)OCCO2,-9,102,91,-40
CC(C)(C)c1cc2nc(C(F)(F)F)cc(NN)n2n1,-51,104,102,-18
COc1cc(/C=C2/SC(=S)NC2=O)ccc1OC(=O)c1cccc(C)c1,2,101,103,-29
c1ccc(CCN2CCOCC2)cc1,-2,102,103,-8
c1ccc2c(c1)nc1n2CCNC1,10,99,101,-6
O=C(O)C1CC(=O)N(CCc2ccccc2)C(=NCCc2ccccc2)S1 (configuration not stated),/,108,107,-4
Cn1c(=O)n2ncnc2c2c3c(sc21)CCCC3,-8,101,99,-14
CCOC(=O)Cn1ncn2c(c(-n3cccc3)c3c4c(sc32)CCCC4)c1=O,-6,102,108,-9
CCC(=O)NC(c1ccccc1OC)c1cc(Cl)c2cccnc2c1O (configuration not stated),-9,93,124,9
CC(=O)Oc1ccc2c(oc(=O)c3ccccc32)c1C,6,100,101,-20
CCOC(=O)c1ccc(NC(=S)NCCN2CCNC2=O)cc1,7,104,98,-11
CCS(=O)(=O)c1ccc2oc(=O)c(/C=C(\O)C(C)(C)C)nc2c1,10,100,100,55*
Cc1cccc(S(=O)(=O)NCc2ccccc2)c1,-3,103,96,/
O=C(Nc1ncnc2sc3c(c12)CCCC3)C(F)(F)F,6,100,98,/
CC[C@]12CCCN3CCc4c(n(c5ccccc45)C(=O)C1)[C@@H]32,-13,99,100,-2
CCn1cc(S(=O)(=O)N2c3ccc(F)cc3CCC2C)cn1 (configuration not stated),7,102,102,-6
CN(C(=O)Oc1cccc2cccnc12)c1ccccc1,-3,104,101,2
CCc1ccc(S(=O)(=O)/N=C2/C=C(Nc3ccccc3)C(=O)c3ccccc32)cc1,-1,98,102,-23
O=C(N/N=C1\CC2CC=CC12)c1ccc(Br)cc1 (configuration not stated),0,102,106,-25
CCOC(=O)c1csc(Nc2ccccn2)n1,4,102,104,-7
O=C(Nn1cnnc1)c1cccc(C(=O)Nn2cnnc2)c1,-17,105,100,-11
CCOC(=O)CCc1c(C)c2ccc(OCC(=O)N(CC)CC)c(C)c2oc1=O,-60,104,106,-17
NC(=S)/N=C1/CCN(c2ccccc2)N1,6,100,104,18
CC(C)C(NC(=O)c1ccco1)C(C)C,-9,101,100,-8
Cc1ccc(C2=NN(C(=O)COC(=O)c3cc4c(C)nn(-c5ccc(F)cc5)c4s3)C(c3ccco3)C2)cc1 (configuration not stated),8,104,116,-12
COc1ccc(NC(=O)Nc2cccc(C)c2)cc1,-28,94,96,7
O=C(CNCC1CCCO1)NCc1ccco1 (configuration not stated),-6,106,99,-83
Cc1cc(N2CCCC2)c2ccccc2n1,-1,100,102,-15
Brc1ccc(-c2nnc(CSc3nnc(-c4ccco4)n3C3CCCCC3)o2)cc1,20,104,99,-24
CCOc1no[n+]([O-])c1-c1ccccc1,-1,101,102,17
COc1cc2cc3c4cc(OC)c(OC)cc4cc[n+]3c(C)c2cc1OC,55&30,88*,75*,3&19
CC1CCN(S(=O)(=O)c2ccc3nc(-c4ccccn4)cc(C(=O)NC4CCCC4)c3c2)CC1,-13,104,107,9
COc1ccc(N(Cc2ccno2)S(=O)(=O)c2ccccc2)cc1,-25,97,97,3
CCCCC(C)/C=C(C)/C=C(\C)C(=O)NC1=CC(O)(/C=C/C=C/C=C/C(=O)NC2=C(O)CCC2=O)C2OC2C1=O (configuration not stated),/,103,101,-11
CC1C(=O)NN=C1C(=O)N=Nc1c(O)[nH]c2ccccc12 (configuration not stated),11,102,100,-67
c1ccc(-c2noc(CSc3nnc(Cc4cccs4)n3C3CCCCC3)n2)cc1,-15,123,121,-27
CCn1c(C)nnc1SCc1ccccc1,/,107,103,5
COc1ccc(N=Nc2c(N)n[nH]c2N)cc1,-13,101,101,11
Nn1c(CSc2ccccn2)nnc1CSc1ccccn1,21,98,101,-22
C/C=C1/C[C@@H](C)[C@](O)(CO)C(=O)OCC2=CCN3CC[C@@H](OC1=O)[C@@H]23,-15,110&103,109&101,-3&-9
CC(C)C1Oc2ccccc2N(CC(=O)N(Cc2ccccn2)C2CC2)C1=O (configuration not stated),-5,102,102,-2
N#CCC(=O)NS(=O)(=O)c1ccccc1,-8,103,104,/
CN(C(=O)CSc1nncn1-c1ccccc1)C1CCCCC1,-1,103,103,-10
CN1CCN(C(=O)NC2CCCCC2)CC1,1,100,100,34
NC(=O)Cn1nnc(-c2ccccc2N)n1,5,100,101,-12
O=C(OCC(=O)N1CCN(c2ccccc2)CC1)c1ccco1,12,105,102,-25
Cc1ccc(-c2nnn(CC(=O)N(Cc3ccccc3)C(C(=O)NC3CCCC3)c3ccco3)n2)cc1 (configuration not stated),-9,99,103,-2
CC(=O)Nc1ccc(N2C(=O)CC(/C=C3/N(C)c4ccccc4C3(C)C)C2=O)cc1 (configuration not stated),10,103,109,-9
O=C1NC(c2ccccc2)=NC1=C(Cl)Cl,-12,104,110,/
CS(=O)(=O)N1CCN(C(=S)Nc2cccc3ccccc23)CC1,-7,101,102,-2
COc1ccc(N2CCN(C(=S)c3ccccc3)CC2)cc1,0,99,103,-6
CC(=O)N(Cc1ccc(S(N)(=O)=O)cc1)C1CC(=O)N(c2ccccc2)C1=O (configuration not stated),/,101,106,3
Cc1ccc(C(=O)NC2CCCC2)s1,-2,98,98,/
O=C(CNCCc1ccc2c(c1)OCCO2)NC1CCCCCC1,-7,104,107,-23

Going on with the list:
molecule,Mtb MbtI inh,Polio RdRp inh,Polio RdRp inh intensity,Mtb MenB inh
Cc1ccc(CC(=O)Nc2nccs2)cc1,-5,101,101,-27
CCOc1ccc(/C=C2\SC(N3CCCC3)=NC2=O)cc1,62,102,97,-22
CC1(C)CC(=O)C2=C(C1)NC(SCC(=O)N1CCOCC1)=C(C#N)C2c1ccco1 (configuration not stated),-2,99,102,-4
Cc1nc2c(cc(O)c3ccsc32)s1,20,106,104,-42
Cc1nn(C(=O)Cc2ccc(Cl)cc2)c(C)c1Br,/,108,109,-7
CC/C(O)=C1\C(=O)CCCC1=NCCc1c(C)[nH]c2ccccc12,/,101,95,-17
NS(=O)(=O)c1ccc(CNC(=O)c2ccc(C(=O)N(C3CCCCC3)C3CCCCC3)cc2)cc1,/,95,92,-14
CCN(CC)S(=O)(=O)c1ccc(-c2ccc(/C=N/N=C3\NC(=O)C(CC(=O)Nc4ccccc4)S3)o2)cc1 (configuration not stated),36,118,131,-66
CN(C1CCS(=O)(=O)C1)S(=O)(=O)c1ccc(Cl)cc1 (configuration not stated),2,100,101,19
COc1ccc(C(=O)COC(=O)c2ccc3c(=O)n4c(nc3c2)CCC4)cc1OC,14,99,106,-5
O=C(O)C1=CN2CCS(=O)(=O)N=C2C=C1,28,98,91,-22
Cc1cc2cc(CN(Cc3ccco3)C(c3nnnn3C3CCCC3)C(C)C)c(=O)[nH]c2cc1C (configuration not stated),-16,105,101,-72
Cc1cc(C)cc(-n2c(C)cc(/C=C3/C(=N)N4C=CSC4=NC3=O)c2C)c1,0,103,104,-18
CCN(CC)c1ccc(NC(=S)Nc2ccc(S(N)(=O)=O)cc2)cc1,63*,102,105,-19
CCNc1nc(NC(C)C)nc(C(=O)O)n1,-1,101,102,24
CN1/C(=C\C(=O)CN2C(=O)NC3(CCCCC3)C2=O)C(C)(C)c2ccccc21,-2,106,112,-13
Cc1ccc(S(=O)(=O)CCN2CCC(n3cccc3)CC2)cc1,-5,102,99,4
O=C(COC(=O)/C=C/c1ccco1)Nc1nnc(-c2ccccc2)o1,31,95,95,-26
CCOc1ccc(OCCCC(=O)OCc2nnc3n(C)c(=O)c4ccccc4n23)cc1,2,104,109,1
COC(=O)C(O)(NS(=O)(=O)c1ccccc1)C(F)(F)F (configuration not stated),-5,102,95,-6

Random excerpt: 2 compounds from above.
molecule,Mtb MbtI inh,Polio RdRp inh,Polio RdRp inh intensity,Mtb MenB inh
Cc1ccc(S(=O)(=O)CCN2CCC(n3cccc3)CC2)cc1,-5,102,99,4
CCOc1ccc(OCCCC(=O)OCc2nnc3n(C)c(=O)c4ccccc4n23)cc1,2,104,109,1
